# Bioassay records as filed in PubChem BioAssay.
# UCH37 inh: inhibitors of human UCH37 deubiquitinase, primary screen, biochemical, Ub-AMC cleavage, fluorescence. purified proteasome/UCH37. inhibition, % (no concentration beside the values). actives 0.33% (n = 330,000);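 active means mean of two replicates above 20%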;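 further: 0% = compound-free wells with enzyme and 100% = wells lacking proteasome; stock transfer was 100 nL into about 20 µL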
#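 Material: human UCH37 enzyme supplied as purified proteasome complex. Measure: % inhibition of Ub-AMC cleavage fluorescence. Medium: pH 7.4 Tris-HCl (50 mM) with ovalbumin, ATP-MgCl2, DTT. Times: 30 min preincubation with enzyme, 25 min cleavage at room temperature. Detection: AMC fluorescence intensity at 355/460 nm.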
# ALR H2O2 inh: inhibitors of human ALR sulfhydryl oxidase, primary screen, biochemical, H2O2 detection, HRP-luminol luminescence, single point; inhibition, % (test concentration not listed); AID 485317, 2010; actives 3.8% (n = 290,000); FAD-linked sulfhydryl oxidase ALR (Homo sapiens), P55789; purified ALR, DTT oxidation;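 active means mean and each replicate at 75% or more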;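 further: stock transfer was 7.5 nL into about 7.5 µL; 0% = neutral wells and 100% = wells with inactivated enzyme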
# Target sequence (P55789 whole entry, looked up): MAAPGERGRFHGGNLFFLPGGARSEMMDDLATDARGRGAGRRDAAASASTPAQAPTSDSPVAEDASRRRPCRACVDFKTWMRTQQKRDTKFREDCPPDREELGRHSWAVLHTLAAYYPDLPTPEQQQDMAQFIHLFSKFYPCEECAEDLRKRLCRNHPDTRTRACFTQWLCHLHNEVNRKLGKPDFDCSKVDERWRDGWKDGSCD
# HNF4A DNA FP: change in binding of human HNF4A to DNA, primary screen, biochemical, fluorescence polarization, FITC-DNA; Hepatocyte nuclear factor 4-alpha (Homo sapiens), P41235; activity change, % at 10 µM; 1 h; actives 0.3% (n = 360,000); in the data active means activity change above about 30%, passing the limit was not always enough;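 further: controls were the assay level and a saturating level of protein; the project sought stronger binding though the title names inhibitors; some compounds called inactive have numbers as strong as hits; positive values seem to mean higher polarization but the record does not say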
# Target sequence (P41235 whole entry, looked up): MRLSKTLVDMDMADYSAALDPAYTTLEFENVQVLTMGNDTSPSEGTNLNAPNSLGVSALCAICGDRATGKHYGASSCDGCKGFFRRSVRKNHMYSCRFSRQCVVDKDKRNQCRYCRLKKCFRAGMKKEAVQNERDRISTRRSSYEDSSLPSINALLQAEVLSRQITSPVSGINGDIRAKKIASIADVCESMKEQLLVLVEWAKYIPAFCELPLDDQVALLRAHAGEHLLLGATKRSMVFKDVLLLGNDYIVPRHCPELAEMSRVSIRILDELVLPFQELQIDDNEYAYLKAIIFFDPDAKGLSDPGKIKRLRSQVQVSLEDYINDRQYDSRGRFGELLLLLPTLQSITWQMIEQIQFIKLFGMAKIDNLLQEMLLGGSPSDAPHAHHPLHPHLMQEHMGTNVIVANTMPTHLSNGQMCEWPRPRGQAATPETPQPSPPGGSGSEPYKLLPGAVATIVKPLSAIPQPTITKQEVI
# B2AR ag: beta2AR agonists driving receptor internalization, primary screen, cell-based, FAP fluorogen, flow cytometry. Beta-2 adrenergic receptor (Homo sapiens), P07550. Am2.2-beta2AR cells; reference of the scale not given here. response, % (test concentration not listed). actives 0.43% (n = 340,000);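 active means response above a set limit, near 3 SD of response in nonfluorescent compounds, cut at about 42% in these data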;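 further: stock transfer was 100 nL into about 11 µL; a reference agonist was the positive control; negative values mostly stem from fluorescent compounds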
# Target sequence (P07550 whole entry, looked up): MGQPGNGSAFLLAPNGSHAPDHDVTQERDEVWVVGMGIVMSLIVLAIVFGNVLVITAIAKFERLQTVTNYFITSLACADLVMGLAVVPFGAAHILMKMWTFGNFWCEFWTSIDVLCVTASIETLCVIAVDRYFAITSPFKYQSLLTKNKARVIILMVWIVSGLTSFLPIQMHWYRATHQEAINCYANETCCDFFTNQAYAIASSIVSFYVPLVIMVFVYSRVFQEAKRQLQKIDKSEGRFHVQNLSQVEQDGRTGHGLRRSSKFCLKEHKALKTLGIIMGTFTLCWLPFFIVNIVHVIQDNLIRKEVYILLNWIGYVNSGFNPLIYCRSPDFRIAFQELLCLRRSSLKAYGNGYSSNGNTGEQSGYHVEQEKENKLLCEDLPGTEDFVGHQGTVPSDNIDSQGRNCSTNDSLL
# FGF22 binding: binders of human FGF22 protein, primary screen, FGF22 synaptogenesis inhibitor project, biophysical, thermal shift, single point | Fibroblast growth factor 22 (Homo sapiens), Q9HCT0 | recombinant FGF22 thermal shift, SYPRO orange fluorescence; percent of sucrose octasulfate shift, DMSO zero | calls only at 9.99 µM | actives 1.5% (n = 340,000) | AID 651658, 2012;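 active means melting point raised past a set limit in the mean and every replicate; three in four hits are not shown here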
# Ecoli rRNA inh: reduced GFP signal of wild-type E. coli, primary screen, bacterial rRNA inhibitor project, GFP/RFP fluorescence, OD600, single point; E. coli WT GFP vs humanized-ribosome RFP mutants, 24 h; hits give low values; DMSO median 0, no signal -100; GFP signal change (wild-type ribosome), % (test concentration not listed); actives 1.6% (n = 350,000);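 active means significant combined selectivity score with lowered wild-type GFP, culture density cut under 30%, mutant RFP and density less affected; inactive means any of these conditions unmet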; further: one replicate is shown; some compounds called inactive have numbers as strong as hits
# Ecoli growth: E. coli growth inhibition, primary screen, OD600; AID 1053175, 2014; OD600 absorbance (concentration not given with the values); Escherichia coli growth, 23 h; hits give low values; actives 0.21% (n = 330,000);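 active means OD600 absorbance below the run mean of sample wells minus 3.6 SD, in any replicate, cut at about 0.56 in these data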;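 further: stock transfer was 300 nL into about 60 µL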
# Ecoli rRNA inh OD600: also measured in Ecoli rRNA inh; calls as there; OD600 change, %; measured here: OD600 growth;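 optical density of the mix in the first replicate; 0 = DMSO median and -100 = no signal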
# Ecoli rRNA inh RFP: also measured in Ecoli rRNA inh; calls as there; RFP signal change, %; measured here: RFP humanized mutant strains;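 first replicate; 0 = DMSO median and -100 = no signal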
# An asterisk follows results filed as active; i = inactive; nt = not tested or not shown; & = joins results of further samples. This is a subset; the hit share may differ from the screen's.
SMILES,UCH37 inh,ALR H2O2 inh,HNF4A DNA FP,B2AR ag,FGF22 binding,Ecoli rRNA inh,Ecoli rRNA inh OD600,Ecoli rRNA inh RFP,Ecoli growth
COc1ccc(NC(=O)C2(C)Cc3c(-c4ccc(C(N)=O)cc4)ccnc3O2)cc1OC (stereo not drawn),nt,nt,-2.6,nt,i,0,0,-4.2,nt
COCCN1C(=O)c2oc3ccccc3c(=O)c2C1c1ccc(OC)c(OC)c1 (stereo not drawn),2.0,-9,-5.3,-3,nt,3,1,-4.6,0.77
COCc1cc(=O)[nH]c2cc(NC(=O)C3CC3)c(C)cc12,-22,-6,0.3,3,nt,nt,nt,nt,0.72
CN(Cc1cccnc1)C(=O)CNC(=O)c1ccc(Cl)cc1Cl,3.9,-23,0.1,-6,i,3,-13,-14,0.68
COc1ccc2[nH]cc(C(O)CN3CCC(C(N)=O)CC3)c2c1 (stereo not drawn),-0.8,-4,2.4,7,nt,nt,nt,nt,0.75
COC(=O)[C@@]12CCCCN1[C@H](c1ccc(-c3ccc(C(C)=O)cc3)cc1)[C@H]1C(=O)N(C)C(=O)[C@H]12,-0.2,1,-0.9,16,i,7,4,-6.6,nt
Cc1nc(N)c(C#N)c(-c2ccccc2)c1C,2.4,-12,-3.9,0,nt,nt,nt,nt,0.77
CC1(C(=O)NS(=O)(=O)c2cccc(Cl)c2)CCN1C(=O)CCc1cccs1 (stereo not drawn),nt,nt,5.6,nt,i,14,12,0.2,nt
C=CCOc1c(CNn2nnnc2N)cccc1OC,0.4,-5,-2.4,-4,nt,nt,nt,nt,0.68
CCc1ccc(S(=O)(=O)c2ccc(-n3nc(C)cc3N)cc2)cc1,4.4,-5,-3.2,0,i,9,10,4.4,0.71
COc1ccccc1NC(=O)CSc1ccc(-c2ccccn2)nn1,-1.5,13,-1.1,-1,i,-24,-40,-7.2,0.7
O=C(CCNC(=O)c1ccco1)NNC(=O)c1ccc(Br)cc1,1.7,nt,3.0,4,nt,-13,-5,-3.5,0.61
O=C(COC(=O)/C=C/c1ccco1)Nc1cccc([N+](=O)[O-])c1,2.3,68,-1.7,19,i,nt,nt,nt,0.72
CC(C)c1nnc(NC(=O)C2CC(=O)N(CCc3ccc(F)cc3)C2)s1 (stereo not drawn),0.7,0,1.8,2,i,0,-1,-1.5,0.71
CC(OC(=O)Cc1ccc(F)cc1)C(=O)N1CCc2ccccc21 (stereo not drawn),3.0,nt,0.8,0,i,-5,-7,-1.6,0.7
COc1ccc(C(=O)Nc2ccccc2C(=O)Nc2ccccn2)cc1,nt,3,-0.8,-4,i,11,13,-1.1,nt
O=C(NC1CCCC1)C1CC(=O)N(c2ccc(F)cc2)C1 (stereo not drawn),-0.1,nt,-0.1,-4,i,2,8,-2.1,0.67
CC1CN(C(=O)COC(=O)/C=C/c2cccc([N+](=O)[O-])c2)CC(C)O1 (stereo not drawn),5.2,nt,2.0,1,i,-1,14,-2.6,0.65
CC1CC(C)CN(c2ncnc3c2cnn3Cc2ccc(Cl)cc2)C1 (stereo not drawn),-3.5,-6,0.3,-3,nt,nt,nt,nt,0.74
Cc1ccccc1NC(=O)C1CCN(c2cc(-c3ccccc3)nc3ncnn23)CC1,-2.9,-8,-0.8,-2,nt,nt,nt,nt,0.74
O=C1/C(=C/C=C/c2ccccc2)Oc2c1ccc(O)c2CN1CCN(CCO)CC1,10,7,26,0,i,-1,-5,-0.6,0.69
Cc1ccn2c(=O)nc(SCC(=O)N3CCCCC3)nc2c1,2.4,-1,-3.8,-1,i,0,-3,-1.0,0.6
O=C(NC1CC1)C1=C[C@H](c2ccc(C(F)(F)F)cc2)C[C@H](OCCCCO)O1,nt,-16,-1.4,-1,i,-22,-35,-18,nt
CC(C)CC(C(=O)NC(=O)NCc1ccccc1)N1C(=O)c2ccccc2C1=O (stereo not drawn),2.5,-15,-1.7,-12,nt,nt,nt,nt,0.8
O=C1c2cccc3c(O)ccc(c23)C(=O)N1Cc1ccco1,9.2,nt,-99,2,i,62,0,4.6,0.71
SMILES,UCH37 inh,ALR H2O2 inh,HNF4A DNA FP,B2AR ag,FGF22 binding,Ecoli rRNA inh,Ecoli rRNA inh OD600,Ecoli rRNA inh RFP,Ecoli growth
O=C(COc1ccc(Cl)cc1)Nc1ncccn1,2.1,0,-1.2,8,nt,nt,nt,nt,0.67
CC1(/[N+]([O-])=C/c2cccc(Cl)c2)CCCCC1=O (stereo not drawn),2.9,nt,-5.7,-5,i,-2,3,-2.5,0.65
CCNc1nc2c(c(=O)[nH]c(=O)n2C)n1CC(C)C,1.7,nt,1.0,2,i,-3,3,-0.4,0.73
COC(=O)C1=CN(Cc2ccc(OC)c(OC)c2)C=C(C(=O)OC)C1c1cccc(F)c1,nt,1,-0.8,1,i,-4,-10,-4.1,nt
C/C(=N\Nc1nccnc1Cl)c1c(F)c(F)c(F)c(F)c1F,nt,5,2.8,10,i,10,7,-3.4,nt
CC(C)c1ccc(NC(=O)CSc2nnc(CN3CCOCC3)n2C)cc1,2.2,98*,-1.0,27,i,4,-3,2.3,0.65
Cc1ccc(-c2csc3nc4c5ccccc5c(NCCCN(C)C)nn4c(=O)c23)cc1,i,-39,9.0,25,nt,-62,-82,-18,0.64
Cc1ccc(C)c(NC(=O)c2cc(S(=O)(=O)N3CCOCC3)cn2C)c1,2.4,-25,0.1,6,i,5,8,1.0,0.7
COc1ccc(C(C#N)CC(=O)c2ccc(OCc3ccccc3)c(OC)c2)cc1OC (stereo not drawn),nt,nt,4.5,nt,i,-3,9,-0.7,nt
O=C(NCc1cccnc1)c1cccc(S(=O)(=O)Nc2ccc(F)cc2)c1,-0.3,nt,0.3,0,nt,8,1,2.1,0.7
CCN(CC)S(=O)(=O)c1ccc2c3c(cccc13)C(=O)S2,2.3,7,1.4,-12,nt,nt,nt,nt,0.68
CCOc1ccccc1N1CCN(C(=O)c2ccccc2OCc2c(C)noc2C)CC1,1.6,nt,0.6,0,i,-16*,-3.5*,4.4*,0.71
CCn1nnc2c(=O)oc3ccccc3c21,1.9,-26,4.1,-8,i,18,14,-1.0,0.69
O=C(NC(c1ccc2ccccc2n1)c1cccs1)C1CCN(Cc2cccc(C(F)(F)F)c2)CC1 (stereo not drawn),nt,nt,0.8,nt,i,-13,-52,11,nt
CC(=O)Nc1ccc(/C=N/NC(=O)CCN2CCN(c3ccccc3)CC2)cc1,nt,5,-1.6,-11,i,12,5,-0.5,nt
O=C(Nc1ccc(C(O)c2ccccc2)cc1)[C@@H]1O[C@H](CO)[C@H](O)[C@H](O)[C@H]1O (stereo partly drawn),nt,nt,1.4,nt,i,19,16,3.2,nt
CN(C)S(=O)(=O)c1ccc(Cl)c(NC(=O)COC(=O)CCC2CCCCC2)c1,2.4,-2,4.7,3,nt,3,-3,3.7,0.68
CCCc1nnc(NC(=O)CCC(=O)N2CCN(S(=O)(=O)c3ccc(C)cc3)CC2)s1,1.7,-5,7.3,-1,i,12,4,1.0,0.72
COc1ccc(C2CC(c3cccc(OC)c3)=NN2c2ccc(S(N)(=O)=O)cc2)cc1 (stereo not drawn),nt,nt,0.5,nt,i,-10,5,-0.9,nt
COc1ccc(S(=O)(=O)N[C@@H]2C=C[C@@H](CC(=O)N3CCc4ccccc4C3)O[C@@H]2CO)cc1,nt,nt,5.1,nt,i,-2&-11,-1&-6,-1.5&2.4,nt
O=S(=O)(c1cccc(-c2nnco2)c1)N1CCCC1,nt,2,0.7,-5,nt,19,14,-2.6,nt
CC1(CC(=O)NNC(=O)Nc2ccccc2)OCCCO1,0.0,6,0.9,-4,i,19,14,1.5,0.67
COc1ccc(NC(=O)CCNS(=O)(=O)c2ccc3c(c2)c(=O)n(C)c(=O)n3C)c(OC)c1,3.2,-36,1.4,5,nt,nt,nt,nt,0.67
Cc1cccc(C)c1NC(=O)CN(C)C(=O)c1ccc(COc2ccccc2)cc1,nt,8,-2.3,5,i,-22,-19,2.8,nt
C=CCOc1ccccc1CNc1cccc(F)c1,1.6,45,-0.6,-6,nt,nt,nt,nt,0.71

# A draw from above in order of formula weight, ascending:
SMILES,UCH37 inh,ALR H2O2 inh,HNF4A DNA FP,B2AR ag,FGF22 binding,Ecoli rRNA inh,Ecoli rRNA inh OD600,Ecoli rRNA inh RFP,Ecoli growth
CC(=O)Nc1ccc(/C=N/NC(=O)CCN2CCN(c3ccccc3)CC2)cc1,nt,5,-1.6,-11,i,12,5,-0.5,nt
CCCc1nnc(NC(=O)CCC(=O)N2CCN(S(=O)(=O)c3ccc(C)cc3)CC2)s1,1.7,-5,7.3,-1,i,12,4,1.0,0.72
COc1ccc(NC(=O)CCNS(=O)(=O)c2ccc3c(c2)c(=O)n(C)c(=O)n3C)c(OC)c1,3.2,-36,1.4,5,nt,nt,nt,nt,0.67

# One compound at a time, from the list above. Order of values: UCH37 inh, ALR H2O2 inh, HNF4A DNA FP, B2AR ag, FGF22 binding, Ecoli rRNA inh, Ecoli rRNA inh OD600, Ecoli rRNA inh RFP, Ecoli growth
# O=C(Nc1ccc(C(O)c2ccccc2)cc1)[C@@H]1O[C@H](CO)[C@H](O)[C@H](O)[C@H]1O (stereo partly drawn) in the list: nt, nt, 1.4, nt, i, 19, 16, 3.2, nt
# O=S(=O)(c1cccc(-c2nnco2)c1)N1CCCC1 in the list: nt, 2, 0.7, -5, nt, 19, 14, -2.6, nt

# Additional results:
SMILES,UCH37 inh,ALR H2O2 inh,HNF4A DNA FP,B2AR ag,FGF22 binding,Ecoli rRNA inh,Ecoli rRNA inh OD600,Ecoli rRNA inh RFP,Ecoli growth
CCOC(=O)/C(C#N)=C\C1=C(N2CCOCC2)CC(C)(C)OC1,3.5,0,4.5,5,i,9,16,2.7,0.67
Nc1ccc(CCS(N)(=O)=O)cc1,3.6,-18,-1.3,-3,nt,nt,nt,nt,0.71
COC(=O)c1ccc(S(=O)(=O)N2CCC(O)CC2)n1C,3.9,-27,-0.5,0,i,nt,nt,nt,0.68
O=C(O)c1cccc2c1/C(=N/O)c1ccccc1-2,nt,-36,0.8,10,i,nt,nt,nt,nt
CCOc1ccc(C(=O)Cc2ccc3oc(C(=O)O)cc3c2)c(O)c1,4.8,6,0.5,1,nt,nt,nt,nt,0.72
O=C(CCN1C(=O)/C(=C/c2ccccc2Cl)SC1=S)NN1CCOCC1,1.1,1,4.1,-5,i,11,2,0.0,0.65
S=c1[nH]nc(-c2ccco2)n1/N=C/c1c(Cl)cccc1Cl,nt,-3,-6.7,-5,i,6,5,1.1,nt
Cn1c(SCC(=O)NC2CCCCC2)nnc1-c1ccncc1,4.3,-11,3.4,6,i,nt,nt,nt,0.61
COCc1cnc(C)nc1N,0.2,-8,4.1,-8,i,10,18,1.6,0.7
O=C(CNC(=O)c1cccc(S(=O)(=O)N2CCc3ccccc32)c1)Nc1ccccc1Br,4.3,nt,-5.0,-12,i,nt,nt,nt,0.69
COc1ccc(C2CC(=O)N3CN(c4ccc(C)c(Cl)c4)CSC3=C2C#N)cc1OC (stereo not drawn),1.6,-8,-2.8,11,i,3,-6,-2.5,0.78
OC1(c2ccccc2)c2ccccc2-c2ncccc21 (stereo not drawn),5.0,7,-2.4,3,i,11,6,-2.0,0.67
O=C(NN=C1CCN(Cc2ccccc2)CC1)c1cccc(S(=O)(=O)Nc2ccccc2Cl)c1,1.1,3,3.5,3,nt,nt,nt,nt,nt
O=C(Nc1c(F)cc(F)cc1Br)c1cc(S(=O)(=O)N2CCN(c3ccccn3)CC2)ccc1F,3.1,-11,-1.5,-13,i,-4,-3,-0.5,0.68
